Screening data as filed in PubChem.
VDR inhibitor – Inhibitors of the vitamin D receptor (VDR): qHTS. Vitamin D3 receptor (Homo sapiens), P11473. VDR-SRC2-3 peptide fluorescence polarization, 2 h. Potency, µM, for inactives: max response, negative = inhibition, most hits filed as inhibitors. 400,000 tested, 0.93% active; active = well fitted inhibition curve with a large enough effect; inconclusive = small, poorly fitted or top-dose-only effect, or another doubt; inactive = no such curve, though single readings can be large or run the other way; note: series mostly up to about 120 µM
Target sequence (P11473 whole entry, looked up): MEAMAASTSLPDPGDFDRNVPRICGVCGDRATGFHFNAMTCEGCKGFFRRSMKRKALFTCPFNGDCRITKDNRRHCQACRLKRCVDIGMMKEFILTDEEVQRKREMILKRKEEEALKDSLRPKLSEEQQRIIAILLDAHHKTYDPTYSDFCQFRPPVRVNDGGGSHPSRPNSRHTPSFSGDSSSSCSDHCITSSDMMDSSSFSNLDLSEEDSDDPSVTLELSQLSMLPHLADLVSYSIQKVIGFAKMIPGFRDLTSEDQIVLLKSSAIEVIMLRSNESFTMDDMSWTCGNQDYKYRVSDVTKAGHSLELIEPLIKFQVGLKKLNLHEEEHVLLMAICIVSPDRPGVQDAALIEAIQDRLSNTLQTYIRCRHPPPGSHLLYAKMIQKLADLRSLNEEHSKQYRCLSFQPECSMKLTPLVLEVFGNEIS
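Reagent solutions, kept cold and dark, are dispensed first; compounds are then pinned in at 23 nl, plates briefly spun, and incubated 2 h at ambient temperature. Inhibition of VDR–SRC2-3 peptide binding is read by fluorescence polarization.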
Active calls of the source: *; ? = inconclusive; & = joins results of further samples. % is set by controls: 0 for no effect and ±100 for the full control effect; potency is the fitted concentration of half-maximal effect. An excerpt; count on the stated rates, not on these rows.

SMILES	VDR inhibitor
CCc1ccc(CNC(=O)c2ccc(CS(=O)(=O)Cc3ccccc3C)o2)cc1	-10.2%
CCOC(=O)c1cnc(SCc2cccc(C)c2)nc1N	12.3%
COc1ccc(-c2ccc(SCC(=O)c3ccccc3)nn2)cc1OC	21.2%
COc1ccc(-c2cc(C(F)(F)F)nc(N3CCN(C)CC3)n2)cc1OC	5.7%
O=S(=O)(Nc1ccc2c(c1)OCCO2)c1ccc(F)c(F)c1	14.9%
Cc1cccc(CSc2ncc(Cl)c(C(=O)Nc3sc4c(c3C#N)CCCC4)n2)c1	7.0%
N=c1n(CCN2CCCCC2)c2ccccc2n1CC(O)c1cccc(Br)c1 (centres undefined)	3.7%
Cc1noc(C)c1C(=O)NCc1ccccc1Br	7.3%
COc1ccc(/C=N\NC(=O)c2ccc([N+](=O)[O-])cc2)cc1COc1c(F)c(F)cc(F)c1F	-25.4%
COc1ccc(-c2[nH]ncc2CN2CCCC2c2nonc2C)c(F)c1 (centres undefined)	8.3%
CCOC(=O)C1CCCN(C(=O)Cn2nc(C)n3c(cc4c(OC)cccc43)c2=O)C1 (centres undefined)	-22.2%&6.6%
C[C@H](OC(=O)c1[nH]cnc1C(=O)N1CCN(C(=O)OC(C)(C)C)CC1)c1ccccc1	-17.8%
O=C(COC(=O)CCC1CCCC1)Nc1ccccc1Br	-1.3%
Cc1ccc(Cl)c(OCCCCN2CCC(C)CC2)c1	25.6%
O=C(Nc1cccc([N+](=O)[O-])c1)c1ccncc1	-0.7%
CCCCCOc1ccccc1C(=O)NCC(=O)O	3.8%
COc1ccccc1CNC(=O)C1CC(c2ccccc2C(F)(F)F)=NO1 (centres undefined)	15.6%
Cc1ccc(OCC(=O)N2CCCC(CO)(CCOc3ccccc3)C2)cc1 (centres undefined)	-19.5%
COCCN(Cc1nc2ccccc2c(=O)[nH]1)C(=O)COc1c(C)cc(Cl)cc1C	-6.5%
C=CCc1ccc(OCCOCCOc2cccc3ccc(C)nc23)c(OC)c1	13.4%
COc1ccc(NC(=O)c2sc3nc(C(F)(F)F)cc(C)c3c2N)cc1OC	-9.4%
COc1ccc(OCCN(C)Cc2ccccc2)cc1	7.3%
O=C(Nc1cscc1S(=O)(=O)c1ccc(Cl)cc1)c1ccccc1Cl	-12.4%
COc1ccc(C(=O)N(CCc2ccccc2)Cc2cccs2)c(OC)c1	15.6%
Cc1cc(Br)c(NC(=O)COC(=O)c2ccc[n+]([O-])c2)c(Br)c1	8.4%
CCN(CC(=O)Nc1c(F)cccc1F)C(=O)CCc1nc2cc(S(=O)(=O)N(C)C)ccc2n1CC	-14.0%
CC(C)CNC(=O)c1cccc(Cn2cc(Cl)cn2)c1	14.6%
COc1ccc(CC(=O)N/N=C/c2cccnc2)cc1OC	8.7%
CCC(C)c1ccccc1NC(=O)COC(=O)c1ccc2c(c1)S(=O)(=O)c1ccccc1C2=O (centres undefined)	-6.3%
O=C(O)CCN1C(=O)c2ccncc2C1=O	19.5%
O=C(COC(=O)c1nc(Cl)ccc1Cl)Nc1ccc2c(c1)OCO2	-14.9%
Cc1ccc2c(CN(C)Cc3ccccc3)cc(=O)oc2c1C	-4.0%
COc1ccc(NC(=O)C2C(=O)N(CCO)C3(C)CC2c2ccccc2O3)cc1 (centres undefined)	-1.5%
CC1CC(C)CN(S(=O)(=O)N2CCCC(C(=O)NC3CCCCC3C)C2)C1 (centres undefined)	-15.2%
Cc1c(C(C)(C)C)c(C=S)n2ccccc12	-18.3%
C[C@@H]1CN([C@H](C)CO)C(=O)Cc2cc(NS(=O)(=O)c3ccc(F)cc3)ccc2O[C@H]1CN(C)Cc1ccc(C(=O)O)cc1	-1.4%

3 entries already listed, ordered by number of heavy atoms, high to low.
SMILES	VDR inhibitor
COc1ccc(NC(=O)C2C(=O)N(CCO)C3(C)CC2c2ccccc2O3)cc1 (centres undefined)	-1.5%
Cc1cc(Br)c(NC(=O)COC(=O)c2ccc[n+]([O-])c2)c(Br)c1	8.4%
O=C(O)CCN1C(=O)c2ccncc2C1=O	19.5%

Carrying on.
SMILES	VDR inhibitor
CC(=O)NS(=O)(=O)c1ccc(NC(=O)CCc2ccccc2)cc1	11.3%
CCc1ccc(CN2CCC(n3nccc3NC(=O)C3CCCC3)CC2)cc1	11.3%
Cc1ccc(NS(=O)(=O)c2ccc(NC(=O)[C@@H]3CCCC[C@@H]3C(=O)O)cc2)c(C)c1	0.0%
CC(NC(=O)C1=CC=CN2CCS(=O)(=O)N=C12)c1ccc(Cl)c(Cl)c1 (centres undefined)	12.7%
COC(=O)[C@]1(CC(C)C)N[C@H](c2ccc(-c3ccc(C(C)=O)cc3)cc2)[C@@H]2C(=O)N(C)C(=O)[C@@H]21	-19.5%
COc1ccc(CCN(C)CCc2ccc(OC)c(OC)c2)cc1OC	4.9%&-1.0%
COC(=O)c1ccccc1NC(=O)c1cc2n(n1)C(C(F)F)CC(C(F)F)N2 (centres undefined)	9.0%
CCc1ccc(NC(=O)CC(c2cc(OC)c(OC)c(OC)c2)N2Cc3ccccc3C2=O)cc1 (centres undefined)	3.6%
CCOC(=O)CSc1nc(C2CC2)nc2ccccc12	1.6%
Cc1nn(C(C)C)c(C)c1CN1CCN(Cc2ccsc2)C(CCO)C1 (centres undefined)	-24.5%
CC(C)NC(=O)c1cc2ccccc2o1	8.6%
Cc1ccc(-c2nn(-c3ccccc3)cc2C(=O)N2CCN(c3ccccn3)CC2)cc1	-28.9%
CS(=O)(=O)N(CC(=O)N1CCN(c2ccccc2)CC1)c1ccc(Cl)c(C(F)(F)F)c1	-3.2%
Cc1ccc(S(=O)(=O)N2CCC(C(=O)O)CC2)cc1C(=O)O	20.1%
CCCCn1c(=NC(=O)c2cc3ccccc3o2)c(C(=O)OCC)cc2c(=O)n3ccccc3nc21	-9.1%
O=C(O)c1ccc(-n2cccn2)nc1	5.4%
COc1cc(Cl)c(C)cc1NC(=O)CN(C)C1CCS(=O)(=O)C1 (centres undefined)	-19.2%
O=C(c1ccc2c(c1)N(Cc1cccc(F)c1)C(=O)c1ccccc1S2)N1CCOCC1	5.3%
CCOC(=O)C(C)Sc1nc2ccccc2c(=O)n1CC (centres undefined)	-0.7%
CCc1c(C)nc(SCC(=O)CC(=O)OC(C)C)c(C#N)c1C	-5.4%
Cc1ccc(C)c(C(=O)O/N=C(\N)c2ccc(Br)cc2)c1	11.1%
Cc1cc(C)n2nc(CNC(=O)c3ccccc3Cl)nc2n1	16.1%
COC(=O)c1ccc(C2NC(=O)CCC2[N+](=O)[O-])cc1 (centres undefined)	2.6%
COc1ccc(NC(=O)CNS(=O)(=O)c2ccc(Cl)cc2)cc1	-2.6%
O=C(CCCOc1ccc(Cl)cc1Cl)N1CCCc2ccccc21	-9.8%
Cc1ccc(-c2nnc(SCC(N)=O)n2C)cc1	2.6%
COc1ccc(S(=O)(=O)Nc2cc(S(=O)(=O)c3ccccc3)c(O)cc2C)cc1	8.9%
COc1ccc(/C=N/NC(=O)c2ccc3nc[nH]c3c2)c(OC)c1OC	14.3%
CCOc1ccc(/C=C/C(=O)Oc2ccc(OC)cc2)cc1	-11.9%
O=C(c1ccccc1)c1ccccc1C(=O)N1CCOCC1	4.1%
CCc1ccc(-c2nnn(Cc3nn[nH]n3)n2)cc1	-4.8%
O=C(N/N=C/c1ccc(OCc2ccccc2)cc1)c1ccncc1	-1.0%
CN(C)CCCn1c(SCc2ccc(Cl)cc2)nnc1-c1ccncc1	-13.3%
CCOc1cc(/C=C2\NC(=O)NC2=O)cc([N+](=O)[O-])c1O	20.1%
COc1ccc(Cl)cc1-c1nc(-c2ccc(NC(=O)c3cccs3)cc2)no1	-10.4%
Cc1onc(-c2ccccc2)c1C(=O)N1CCc2ccccc21	13.0%

The last 6 compounds of the part before open the next one:
SMILES	VDR inhibitor
CCc1ccc(-c2nnn(Cc3nn[nH]n3)n2)cc1	-4.8%
O=C(N/N=C/c1ccc(OCc2ccccc2)cc1)c1ccncc1	-1.0%
CN(C)CCCn1c(SCc2ccc(Cl)cc2)nnc1-c1ccncc1	-13.3%
CCOc1cc(/C=C2\NC(=O)NC2=O)cc([N+](=O)[O-])c1O	20.1%
COc1ccc(Cl)cc1-c1nc(-c2ccc(NC(=O)c3cccs3)cc2)no1	-10.4%
Cc1onc(-c2ccccc2)c1C(=O)N1CCc2ccccc21	13.0%
COc1cc(-c2oc3cc(O)cc(O)c3c(=O)c2O[C@@H]2O[C@H](CO)[C@@H](O)[C@H](O)[C@H]2O)ccc1O	-4.2%
CC(C)Oc1cccc(C(=O)C2CCCN(Cc3cccn3-c3cccnc3)C2)c1 (centres undefined)	-23.9%
O=C(Nc1ccc(N2CCOCC2)c(Cl)c1)c1cccnc1	-0.4%
Cc1ccc(NC(=S)NNC(=S)NC2CCCCC2)cc1	?
COc1ccc(C(=O)c2cc([N+](=O)[O-])ccc2N2CCCC2)cc1	13.4%
COc1ccc(/C=N/N=C2\SCC(=O)N2c2c(C)n(C)n(-c3ccccc3)c2=O)cc1OC	-10.4%
Cc1cccc(NC(=O)CNC(=O)COc2ccc(-c3ccc(C#N)cc3)cc2)c1C	3.0%
COc1ccccc1CNC(=O)CN(c1cccc([N+](=O)[O-])c1)S(C)(=O)=O	-2.6%
CC1=NN(C(=O)c2ccoc2C)C(O)(C(F)(F)F)C1 (centres undefined)	-1.4%
COc1ccc(NC(=O)c2cc(-c3ccc4c(c3)OCO4)on2)cc1	4.4%
Cc1ccc(S(=O)(=O)Nc2cc(-c3ccccc3)nn2C)cc1	6.5%
COc1ccc(OC)c(CNC(=O)Cc2c(C(=O)O)[nH]c3ccccc23)c1	-12.8%
Cc1cc(C)c(C2=Nn3c(C)nnc3SC2C)cc1C (centres undefined)	13.5%
CCc1ccccc1NC(=O)CNC(=O)c1ccc(-n2cncn2)c([N+](=O)[O-])c1	-11.0%
COc1ccccc1N(C(=O)Cn1nnc(-c2ccc(C)o2)n1)C(C(=O)NC1CCCC1)c1ccncc1 (centres undefined)	3.5%
CC(C)Cc1ccc(C(C)NC(=O)c2ccc(=O)[nH]c2)cc1 (centres undefined)	-5.5%
CCCc1cc(C(=O)N2CCCC(C(=O)c3cccc4ccccc34)C2)n(C)n1 (centres undefined)	-15.7%
CC1CCc2ccccc2N1CC(=O)Nc1cccc(S(=O)(=O)N2CCCC2)c1 (centres undefined)	28.2%
CC(=O)c1ccc(OCCCC(=O)N2CCN(S(=O)(=O)c3ccc(C(C)C)cc3)CC2)cc1	-22.7%
COc1cccc(N2CCN(CC(=O)NC3=Nc4ccccc4N=C(C)C3c3ccccc3)CC2)c1 (centres undefined)	-19.7%
COc1ccc(-c2cn3cccnc3n2)cc1NC(=O)Nc1ccc(Cl)cc1	0.1%
O=C(O)CCCNc1c(C(=O)Nc2ccc(Cl)cc2)cc([N+](=O)[O-])cc1[N+](=O)[O-]	-15.1%
COc1ccc(NC(=O)c2ccc(C(=O)c3ccccc3)o2)cc1	-2.8%
Cc1nn(Cc2ccc(F)cc2)c(Cl)c1/C=N/NC(=O)c1ccccc1	14.0%
Cc1cc2nc3c(c(=O)n2[nH]1)CCCC3	5.6%
O=C(COc1ccccc1)Nc1ccc(N2CCCCC2)cc1	-3.8%
CCn1c(=N)n(CC(O)COc2cccc(C)c2)c2ccccc21 (centres undefined)	8.4%
COC(=O)C1=C(C(=O)OC)[C@]2([C@@H]3CCCCN[C@@H](Cc4ccccc4)C(=O)N3Cc3ccccc3)C=C[C@H]1O2	12.7%
Cc1cccc(C)c1OCCCCn1c(C2CC(=O)N(c3ccc(F)cc3)C2)nc2ccccc21 (centres undefined)	-0.6%
O=c1cc(-c2nn[nH]n2)[nH]c(=O)[nH]1	-8.9%
CCn1ccc2cc(S(=O)(=O)N3CCCN(C(=O)Nc4ccc(C)cc4Cl)CC3)ccc21	5.3%
COc1ccc(NC(=O)CN(C)C(=O)C2CCCO2)cc1 (centres undefined)	-0.6%
COc1ccc(Cn2c(=O)[nH]c3cc(C(=O)NCCCN4CCCC4)ccc3c2=O)cc1	-5.0%
Cc1ccc(C)c(S(=O)(=O)NCC(=O)OCC(=O)Nc2sccc2C(N)=O)c1	-4.9%
CC1CCCCN1C(=O)C1CCN(c2nc(-c3ccccc3)nc3c2CCC3)CC1 (centres undefined)	15.4%
CCCn1nc(NC(C)=O)c2cc3cccc(C)c3nc21	23.6%
CN(C)Cc1cc(C(C)(C)C)c(O)c(C(C)(C)C)c1	-1.3%
O=C(Nc1cccnc1)c1cc(-c2ccccc2)on1	3.7%
COc1ccc(-n2ncc3c(N4CCCc5ccccc54)ncnc32)cc1	6.4%
COc1ccc(-c2cc(N)n(S(=O)(=O)c3ccc(F)cc3)n2)cc1OC	16.7%
Cc1ccc2c(CC(=O)OC(C)C(=O)Nc3ncc(Cl)cc3Cl)coc2c1 (centres undefined)	5.0%
COC(=O)C1=C(C(=O)OC)[C@@H]2N(C)c3ccccc3[C@@]23C[C@@H](CO)N(C(=O)C2CCC2)C3=N1	-17.8%
CCOc1cc(/C=N/Nc2nc(=O)[nH]nc2C)ccc1O	-3.7%
C=CCOc1ccc(/C=C2\N=C(C)OC2=O)cc1OC	?
Cn1c(=O)c2c(nc(SCC(=O)NCc3ccc4c(c3)OCO4)n2Cc2ccc(F)cc2)n(C)c1=O	-0.6%
CS(=O)(=O)Oc1ccc(Br)cc1/C=C1/N=C(c2ccco2)OC1=O	18.5%
O=C(CCNS(=O)(=O)c1ccccc1)N1CCOCC1	5.5%
O=C(COc1ccc(Br)cc1Cl)c1ccc[nH]1	4.0%
CCOc1cccc2c1OC1(C)CC2NC(=O)N1c1cccc(Cl)c1 (centres undefined)	-7.9%
C[C@@H]1CN([C@H](C)CO)C(=O)c2cc(NC(=O)c3ccncc3)ccc2O[C@@H]1CN(C)C(=O)Nc1ccccc1	2.4%
CCC(C(=O)Nc1ccc(C)c(C)c1)n1c(=O)c(C(F)(F)F)nc2ccccc21 (centres undefined)	1.4%
